Source: PubChem BioAssay (Broad Institute)
RanGTP-Impb inh: inhibitors of RanGTP-importin-beta interaction, primary screen, biochemical, FRET, CFP-Ran, YFP-importin-beta, homogeneous; AID 2216, 2009; 1.1% of 300,000 active; inhibition, % (concentration not given with the values); Ran GTPase (GTP-bound) - importin-beta complex; cell-free CFP-Ran/YFP-importin-beta FRET ratio;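 active = most replicates above 15%; inconclusive = exactly half above 15%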;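 also: 0% = DMSO wells and 100% = Ran loaded with GDP instead of GTP; wells of about 40 µL received 100 nL stock; the first replicate is given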
FGF22 binding: binders of human FGF22 protein, primary screen, FGF22 synaptogenesis inhibitor project, biophysical, thermal shift, single point | calls only at 9.99 µM | recombinant FGF22 thermal shift, SYPRO orange fluorescence; percent of sucrose octasulfate shift, DMSO zero | AID 651658, 2012 | 1.5% of 340,000 active | Fibroblast growth factor 22 (Homo sapiens), Q9HCT0;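 active = melting point raised past a set limit in the mean and every replicate; inconclusive = no clear call; three in four hits are not shown here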
Target sequence (Q9HCT0 whole entry, looked up): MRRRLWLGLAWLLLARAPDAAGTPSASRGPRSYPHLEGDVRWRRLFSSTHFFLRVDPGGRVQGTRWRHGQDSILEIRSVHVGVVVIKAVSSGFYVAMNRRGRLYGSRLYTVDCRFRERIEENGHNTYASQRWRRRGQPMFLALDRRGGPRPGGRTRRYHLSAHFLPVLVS
Calb FLC: C. albicans growth inhibition with fluconazole, primary screen, CaCi-2 strain, Alamar Blue fluorescence | C. albicans CaCi-2 (fluconazole-resistant clinical isolate) + fluconazole, 48 h | growth inhibition, % (test concentration not listed) | 0.57% of 300,000 active | AID 1979, 2009;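 active = most replicates above 75%; inconclusive = exactly half above 75%; inactive = most below 75%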;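 also: all wells also contain fluconazole at 8 µg/ml as a sub-toxic cotreatment; 0% = median of DMSO wells and 100% = median of geldanamycin control wells; wells of about 8 µL received 7.5 nL stock; the first replicate is given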
Ecoli rRNA inh: reduced GFP signal of wild-type E. coli, primary screen, bacterial rRNA inhibitor project, GFP/RFP fluorescence, OD600, single point. E. coli WT GFP vs humanized-ribosome RFP mutants, 24 h; hits give low values; DMSO median 0, no signal -100. AID 720706, 2013. GFP signal change (wild-type ribosome), % (no concentration beside the values). 1.6% of 350,000 active;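 active = significant combined selectivity score with lowered wild-type GFP, culture density cut under 30%, mutant RFP and density less affected; inactive = any of these conditions unmet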; also: one replicate is shown; some compounds called inactive have numbers as strong as hits
ALR inh: inhibitors of human ALR sulfhydryl oxidase, primary screen, biochemical, H2O2 detection, HRP-luminol luminescence, single point; FAD-linked sulfhydryl oxidase ALR (Homo sapiens), P55789; purified ALR, DTT oxidation; inhibition, % (concentration not given with the values); 3.8% of 290,000 active;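 active = mean and each replicate at 75% or more; inconclusive = only one of the two met; inactive = neither met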;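 also: stock transfer was 7.5 nL into about 7.5 µL; 0% = neutral wells and 100% = wells with inactivated enzyme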
Target sequence (P55789 whole entry, looked up): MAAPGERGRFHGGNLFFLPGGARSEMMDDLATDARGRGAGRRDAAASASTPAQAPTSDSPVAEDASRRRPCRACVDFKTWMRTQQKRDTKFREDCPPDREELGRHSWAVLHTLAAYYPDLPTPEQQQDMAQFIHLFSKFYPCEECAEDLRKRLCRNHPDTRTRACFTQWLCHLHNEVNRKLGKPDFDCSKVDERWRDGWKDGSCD
Beta apoptosis: inhibitors of cytokine-induced beta cell apoptosis, primary screen, luminescence. INS-1E cytokine-induced death, ATP luminescence, 48 h; percent of positive-control rescue, neutral wells zero. protection from apoptosis, % (test concentration not listed). 0.8% of 300,000 active;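 active = all replicates at 75% or more, or half of them and the mean; inconclusive = half reach 75% but not the mean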;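 also: 0% = cytokine-treated negative control wells and 100% = positive control rescue; higher means more ATP so stronger rescue from cytokine killing; wells of about 40 µL received 100 nL stock; the first replicate is given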
AF4-AF9 inh: inhibitors of AF4 peptide binding to AF9, primary screen, biochemical, AlphaScreen, biotin-AF4 peptide, FLAG-AF9, single point | Protein AF-9 (Homo sapiens), P42568 | inhibition, % at 10 µM | 0.47% of 350,000 active | AID 651704, 2012;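 active = every replicate reaching a set inhibition limit, whatever the replicate mean, cut at about 25% in these data; inconclusive = mean inhibition reaches that limit but some replicates miss it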;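 also: 0% = plate neutral control median and 100% = total signal loss; the record names both 10 and 1 µM as test concentration; the first replicate is given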
Target sequence (P42568 whole entry, looked up): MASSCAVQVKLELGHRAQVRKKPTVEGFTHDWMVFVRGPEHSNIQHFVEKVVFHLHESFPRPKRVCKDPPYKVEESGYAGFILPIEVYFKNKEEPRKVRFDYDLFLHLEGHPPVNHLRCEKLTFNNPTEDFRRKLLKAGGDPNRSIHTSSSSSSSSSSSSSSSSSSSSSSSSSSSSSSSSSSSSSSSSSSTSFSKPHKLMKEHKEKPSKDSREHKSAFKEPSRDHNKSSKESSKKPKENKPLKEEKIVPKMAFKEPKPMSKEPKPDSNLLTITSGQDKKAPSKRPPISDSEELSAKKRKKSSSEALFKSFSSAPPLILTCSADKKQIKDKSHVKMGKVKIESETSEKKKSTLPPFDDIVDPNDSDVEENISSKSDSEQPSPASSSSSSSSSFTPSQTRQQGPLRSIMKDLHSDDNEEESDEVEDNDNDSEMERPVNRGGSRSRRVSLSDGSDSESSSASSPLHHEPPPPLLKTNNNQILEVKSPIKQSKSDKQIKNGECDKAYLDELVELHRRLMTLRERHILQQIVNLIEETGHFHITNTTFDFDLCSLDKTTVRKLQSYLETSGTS
T cruzi inh: inhibitors of intracellular T. cruzi growth, primary screen, luminescence, NIH3T3 host cells; T. cruzi beta-gal in NIH3T3, 90 h; AID 1885, 2009; 1.4% of 300,000 active; inhibition, % (no concentration beside the values);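 active = mean inhibition across valid replicates above about 55%, limit read from the data; inconclusive = mean below that limit but half or more replicates reach it; inactive = mean below it, under half of replicates reach it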;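 also: signal also drops with host cell toxicity which is not excluded here; 0% = plate median of DMSO wells and 100% = zero luminescence signal; higher percent means less beta-gal luminescence so fewer parasites; stock transfer was 50 nL into about 50 µL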
Ecoli rRNA inh OD600: second read-out of Ecoli rRNA inh, no call of its own (marks repeat the call); OD600 change, %; measured here: OD600 growth;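 optical density of the mix in the first replicate; 0 = DMSO median and -100 = no signal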
Ecoli rRNA inh RFP: also measured in Ecoli rRNA inh; calls as there; RFP signal change, %; measured here: RFP humanized mutant strains;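 first replicate; 0 = DMSO median and -100 = no signal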
Active calls of the source: *; i = inactive; ? = inconclusive; / = no result given; + = active, no number.

structure	RanGTP-Impb inh	FGF22 binding	Calb FLC	Ecoli rRNA inh	Ecoli rRNA inh OD600	Ecoli rRNA inh RFP	ALR inh	Beta apoptosis	AF4-AF9 inh	T cruzi inh
COc1ccc(-c2coc3cc(O)ccc3c2=O)cc1O	-0.7	i	-6	/	/	/	77*	/	0.7	-18
Cc1cc(C)c2cc(C#N)c(N3CCCN(S(=O)(=O)c4ccccc4)CC3)nc2c1	11	/	-8	/	/	/	-7	1	/	0
O=C(NCCc1ccc(Cl)cc1)c1cc(-c2ccncc2)nc2ccccc12	-1.3	i	-1	4	-3	-5.2	-1	14	-25	43
O=C1CC(=C2c3ccccc3-c3ccccc32)C(=O)N1CCCCN1CCN(c2ccccc2)CC1	-2.0	/	-35	/	/	/	-12	0	/	33
Cc1nc(S(=O)(=O)NC2CCCCC2)c(C#N)c(C)c1Cl	-1.0	/	-22	/	/	/	41	10	/	24
COc1cccc(CNC(=O)CCC2CCCN(C(=O)c3ccc(OC)c(F)c3)C2)c1 (stereo not drawn)	-0.7	i	-4	6	11	2.7	/	-1	-7.6	3
O=[N+]([O-])c1ccc(Cl)cc1Sc1nc2ccccc2o1	1.9	/	53	-38	-63	-15	7	-1	9.5	26
CN(Cc1cccnc1)Cc1c(C(=O)N2CCc3ccccc3C2)nc2ccc(Cl)cn12	3.0	/	14	/	/	/	-3	1	/	15
Cc1cc(C)n(-c2ccc(C(=O)OCC(=O)Nc3ccc(S(=O)(=O)N4CCCCC4)cc3)cc2)n1	7.3	/	0	/	/	/	-2	0	/	2
CC(C)(C)c1nn2cnnc2n(/N=C/c2ccccc2)c1=O	-0.3	i	-9	5	10	-1.7	/	-4	3.8	-5
CCOC(=O)COc1ccccc1/C=N/O	?	/	-4	/	/	/	-8	-7	/	-4
CC(C)(C)c1c(Cl)c(O)c(-c2ccccc2)c(=O)n1-c1ccccc1	?	i	-8	-17	-16	-4.0	/	/	11	-11
Cc1ccc(CNC(=O)CN2C(=O)CSc3ccc(S(=O)(=O)N4CCC(C)CC4)cc32)cc1	0.8	i	-2	-20	-16	-3.9	-4	-1	0.6	12
O=C(COc1ccc(-c2nnco2)cc1)NCc1ccccc1Cl	4.0	i	4	15	9	2.5	-13	-2	-0.8	-15
N=c1sccn1CC(=O)NCc1ccc(Cl)cc1Cl	3.0	/	-6	7	14	-0.6	-4	-13	-0.4	-4

(cont.)
structure	RanGTP-Impb inh	FGF22 binding	Calb FLC	Ecoli rRNA inh	Ecoli rRNA inh OD600	Ecoli rRNA inh RFP	ALR inh	Beta apoptosis	AF4-AF9 inh	T cruzi inh
O=C(Oc1cc(=O)oc2c1c(=O)n1c3c(cccc23)CC1)c1ccccc1	0.3	/	-5	-17	-23	-2.6	1	/	1.2	-10
Cc1cccc(-c2cc(C(=O)Nc3cccnc3)c3ccccc3n2)c1	-2.8	i	-11	-19	-47	-10	-7	4	2.1	18
O=C(c1ccccc1)N1CCC(O)(c2cccnc2)CC1	3.0	/	/	/	/	/	3	-1	/	10
CC(C)C(NC(=O)c1ccccc1)C(=O)N1CCCCCC1 (stereo not drawn)	1.2	/	6	4	12	0.7	-4	1	-0.2	-5
NC(=O)CSc1nnc(NC(=O)c2ccc(Br)o2)s1	9.5	i	1	13	15	0.4	3	-3	1.0	-18
Cc1cccc(NC(=O)c2ccc3c(c2)OCCO3)c1	-0.8	i	-9	-4	1	-2.0	/	/	0.4	-1
O=C(O)c1cccc(-n2cc(-c3cccc(C(F)(F)F)c3)cn2)c1	0.3	+	-8	-17	-18	-2.9	3	0	-9.9	0
CCOC(=O)c1sc2nc(C)nc(Nc3ccc(OC)cc3)c2c1C	3.9	i	0	14	13	0.1	-4	0	-1.5	26
Cc1ccc2sc(N(CCCN(C)C)C(=O)CCS(=O)(=O)c3ccccc3)nc2c1C	-6.1	i	-6	6	1	12	98*	-3	0.9	63*
Cc1cc(C(=O)COC(=O)c2ccc(O)cc2)c(C)n1-c1ccccc1F	1.5	i	20	-29*	-5.3*	3.0*	/	-2	3.2	22
CCCCn1c(=N)c(S(=O)(=O)c2ccc(Br)cc2)cc2c(=O)n3cccc(C)c3nc21	-0.4	i	-3	1	0	-1.5	-14	-2	3.1	10
COc1ccc(Cl)cc1C(=O)Nc1cc(=O)n(C)c(=O)n1C	-1.6	i	1	5	11	0.3	-2	-3	49*	-7
CN(C(=O)Cc1csc(-c2ccccc2)n1)c1c(N)n(Cc2ccccc2)c(=O)[nH]c1=O	1.4	i	-3	12	3	-2.9	/	1	-1.3	5
Cc1ccc(-c2csc(N=C(N)N)n2)cc1	1.5	i	-5	-33	-52	-3.7	99*	/	3.7	32
Cn1c(SCC(=O)Nc2cccc3ccccc23)nc(O)cc1=O	-3.5	/	4	/	/	/	98*	-5	/	-7

More compounds follow:
structure	RanGTP-Impb inh	FGF22 binding	Calb FLC	Ecoli rRNA inh	Ecoli rRNA inh OD600	Ecoli rRNA inh RFP	ALR inh	Beta apoptosis	AF4-AF9 inh	T cruzi inh
CC(C)(C)c1[nH]nc2c1C(c1ccncc1)C(C#N)=C(N)O2 (stereo not drawn)	-2.0	/	3	/	/	/	2	-4	/	-17
Nc1c(NCc2ccccc2F)c(=O)[nH]c(=O)n1Cc1ccccc1	1.8	/	-4	/	/	/	/	1	/	2
O=C1CC(c2ccc(S(=O)(=O)NCCOc3ccccc3)cc2)CN1 (stereo not drawn)	?	/	-10	/	/	/	14	-3	/	-15
CC(C)CC(C(=O)NC(C)(C)C)N(Cc1ccccc1Cl)C(=O)c1snc(C(N)=O)c1N (stereo not drawn)	-0.9	i	4	-11	-11	-3.6	-4	9	6.9	16
N#Cc1c(N)n(-c2ccc(C(=O)O)cc2)c2nc3ccccc3nc12	50*	i	-2	11	-2	-5.2	-46	-5	-3.0	-12
CCOC(=O)C1CCCN(C(=O)c2cn(-c3ccccc3)nc2-c2cccnc2)C1 (stereo not drawn)	?	i	-6	8	-3	2.8	-6	-4	10	3
O=C(CSc1nnc(SCc2ccccc2)s1)N/N=C/c1c(Cl)cccc1Cl	2.3	/	28	/	/	/	-9	3	/	-2
Cc1nn(-c2ccccc2)c(Cl)c1C(=O)NCC(=O)O	0.5	/	-12	/	/	/	0	-6	/	-21
Cc1ccc(NC(=O)CC2S/C(=N/N=C/C=C/c3ccccc3)NC2=O)cc1Cl (stereo not drawn)	0.2	i	-5	0	10	3.3	-5	-7	-2.0	-6
Cc1ccc(NC(=O)C2CCC2)cc1S(=O)(=O)N1CCCCCC1	-1.6	i	2	-6	-17	-0.3	7	-2	7.1	9
Cn1c(/N=C/c2c(O)ccc3ccccc23)nc2ccccc21	/	/	44	/	/	/	91*	-29	/	12
N#Cc1ccc(OCC(=O)NC(=O)NC2CCS(=O)(=O)C2)cc1 (stereo not drawn)	/	i	/	5	14	-0.7	0	0	-11	/
CCOC(=O)Cn1c(=O)sc2ccccc21	0.9	/	-10	/	/	/	/	-1	/	-8
CC(=O)N/C(=C\c1ccccc1)C(=O)OCC(=O)c1ccccc1	3.2	i	/	-1	-3	-1.5	-2	-3	-8.9	-7
Cc1cccc(OCC(=O)NC2CC(C)(C)NC(C)(C)C2)c1	0.6	i	-9	3	10	-1.1	-3	1	-1.5	3

Next compounds follow.
structure	RanGTP-Impb inh	FGF22 binding	Calb FLC	Ecoli rRNA inh	Ecoli rRNA inh OD600	Ecoli rRNA inh RFP	ALR inh	Beta apoptosis	AF4-AF9 inh	T cruzi inh
O=C(COC(=O)c1c(F)cccc1F)Nc1ccc2[nH]c(=O)[nH]c2c1	4.8	i	-6	9	7	0.6	-4	-7	4.1	-9
Cc1ccc(N2C(=O)C3N=NN(CC(=O)N4N=C(c5cccc6ccccc56)CC4c4ccccc4)C3C2=O)cc1 (stereo not drawn)	4.7	/	10	/	/	/	/	4	/	11
CCN1C(=O)/C(=C/N(C)C)c2ccccc21	1.4	/	8	/	/	/	99*	-1	/	-7
COc1ccc(C2C(C#N)=C(N)Nc3nc4ccccc4n32)cc1 (stereo not drawn)	-0.3	/	-3	/	/	/	-9	5	/	2
COc1ccc(NC(=O)CN(c2ccc(Cl)cc2)S(C)(=O)=O)cc1OC	-0.8	i	0	-1	5	8.4	-15	13	-2.0	6
COC(=O)Cn1cnc2c(nnn2-c2cccc(OC)c2)c1=O	0.3	i	3	10	6	-1.3	-6	/	-0.3	0
O=C(CCNC(=O)c1ccco1)NC(Cc1c[nH]c2ccccc12)C(=O)O (stereo not drawn)	/	i	/	10	10	0.1	/	-18	-3.7	/
O=C1CN(C(=O)CSc2ccc(-c3ccc(F)cc3)nn2)c2ccccc2N1	-0.7	i	6	-8	-18	-1.5	0	9	-9.6	7
Cc1nc(CSc2ccc(Cl)cc2)cs1	0.7	i	-3	1	1	-1.3	1	-20	0.6	-4
O=C(CNC(=O)C1CCCCC1)Nc1ccccc1	-0.2	/	2	/	/	/	-3	-1	/	-29
Clc1cccc(Cl)c1C[n+]1ccc2ccccc2c1	?	i	-15	14	12	15	-6	12	-3.1	20
COc1ccc(CC(=O)NCC2CCCN(Cc3ccc(F)c(OC)c3)C2)cc1 (stereo not drawn)	-1.1	i	0	9	8	1.5	/	/	-2.1	42
OC(COC(c1ccccc1)c1ccccc1)CN1CCCCC1 (stereo not drawn)	-2.8	/	5	/	/	/	-15	-1	/	-17
COc1ccc(OC)c(Cc2nnc(CCC(=O)NCc3ccc(C)s3)o2)c1	4.9	i	-25	8	10	0.6	-3	4	-1.5	-17
CCOC(=O)C1(CCOc2ccccc2)CCN(Cc2ccc(F)c(OC)c2)CC1	?	i	2	-28	-43	15	/	8	1.7	35

Further records.
structure	RanGTP-Impb inh	FGF22 binding	Calb FLC	Ecoli rRNA inh	Ecoli rRNA inh OD600	Ecoli rRNA inh RFP	ALR inh	Beta apoptosis	AF4-AF9 inh	T cruzi inh
O=C(/C=C/c1ccc2c(c1)OCO2)NCCCN1CCOCC1	0.7	/	15	/	/	/	-2	-7	/	-13
Cc1cc(C(=O)COC(=O)C2CCN(C(=O)c3ccc(Cl)cc3)CC2)c(C)n1CC1CCCO1 (stereo not drawn)	-7.3	i	-1	1	-11	1.7	1	1	4.6	18
Cc1ccc(C(=O)CCC(=O)NCc2ccc(Cl)cc2)cc1	/	i	/	8	15	9.6	0	-1	-3.5	/
O=Cc1cn(CCC(=O)O)nc1-c1cc2ccccc2o1	-1.4	i	5	-11	-6	-1.0	-3	-9	-27	0
COc1ccccc1NS(=O)(=O)c1cc(C(=O)N2CC(C)CC(C)C2)ccc1C (stereo not drawn)	2.7	/	-1	/	/	/	4	4	/	4
CC1=C(C)CC(C(=O)NC(C)CCc2ccccc2)C(C(=O)O)C1 (stereo not drawn)	0.4	i	-7	8	4	0.2	26	2	-4.2	-6

This is a subset (hit frequency here may not be typical).
